Compound activity as filed in PubChem BioAssay.
Vaccinia Venus = vaccinia inhibition (Venus reporter) | 330,000 tested, 0.46% active | Vaccinia virus Venus reporter expression, fluorescence | Potency, µM (titrated, usually from 36.5 µM), for the others: at the highest dose activity change, negative = inhibition, actives largely listed as inhibitors; active means well fitted inhibition curve with a large enough effect; inconclusive means small, poorly fitted or top-dose-only effect; inactive means no such curve, though single readings can be large or run the other way; tested in A549 cells; note: nearly all actives have a fitted effect of over 30% in size; inactives centre near -10
Vaccinia mCherry = inhibitors of vaccinia virus infection (mCherry reporter signal) | Vaccinia virus mCherry reporter infection, fluorescence; about a quarter of the inactives have no number | Potency, µM (titrated, usually from 36.5 µM), inactives show at the top dose activity change, negative = inhibition, most hits filed as inhibitors | 310,000 tested, 0.63% active | AID 720579; active = well fitted inhibition curve with a large enough effect; inconclusive = small, poorly fitted or top-dose-only effect; inactive = no such curve, though single readings can be large or run the other way; tested in A549 cells; note: nearly all actives have a fitted effect of over 35% in size; inactives centre near -10
* hit, by the source's call; i = inactive; ? = inconclusive; · = no result given; & = joins results of further samples; [ ] = dose if it differs, or a comment. % is set by controls: 0 for no effect and ±100 for the full control effect; potency is the fitted concentration of half-maximal effect.

Values run as follows: Vaccinia Venus, Vaccinia mCherry
Cc1ccc(S(=O)(=O)c2nnn3c2nc(N(C)Cc2ccccc2)c2cc(Cl)ccc23)cc1C
  -1%, -9%
COc1cc2c(cc1OC)C(COc1ccc3c(C)cc(=O)oc3c1)N(C(=O)c1cc(Cl)ccc1OC)CC2 (configuration not stated)
  -3%, -13%
COc1ccc(/C=C\c2onc(C)c2S(=O)(=O)N2CCC(C(=O)Nc3cccc(C)c3C)CC2)cc1
  -12%, -7%
COc1ccc(OCC(=O)Nc2ccc(NC(=O)c3ccco3)c(C)c2)cc1
  -5%, -1%
Cc1cc(C(C)(C)C)cc(C)c1CCNC(=O)c1ccc[n+]([O-])c1
  25%, 10µM*
COCCn1c(N2CCN(c3ccc(OC)cc3)CC2)nc2c1c(=O)[nH]c(=O)n2C
  -12%, -13%
O=C1NC[C@@H](c2ccccc2)OC(=O)[C@@H](Cc2ccc(F)cc2)C/C=C\C[C@@H]1CC(=O)N(CCO)Cc1ccccc1
  ?, -13%
COc1cccc(CN(C)S(=O)(=O)c2ccccc2Br)c1
  -3%, i
O=C(NCCc1c[nH]c2ccccc12)/C(=C/c1cccnc1)NC(=O)c1ccccc1
  -24%, ?
COc1ccc(-c2noc(CSc3nc(N)cc(=O)[nH]3)n2)cc1
  -12%&-21%, -12%&-8%
CC(C)(C)c1ccc(C(O)c2ncc(-c3ccccc3Cl)[nH]2)cc1 (configuration not stated)
  7%, 28%
CC[C@]12C(=O)N(C)C[C@H]([C@@H]3C(=O)N(Cc4ccccc4)C(=O)[C@@H]31)N2C(=O)c1ccccc1
  -3%, i
Nc1ccc2c(c1)sc1ccccc12
  3%, -13%
COc1cc(/C=N/N2CCN(Cc3ccccc3)CC2)cc(OC)c1OC
  -13%, -9%
CCCCSc1nc2ccccc2n1CC(=O)O
  -9%, i
Cc1cccc(N2CCN(C(=O)CN3C(=O)COc4ccc(S(=O)(=O)N5CCC(C)CC5)cc43)CC2C)c1 (configuration not stated)
  -11%, -14%
CCOc1ccc(NC(=O)Cn2c(=O)n(CC(=O)NCc3ccccc3Cl)c(=O)c3sccc32)cc1
  -7%, 4%
CCC(CC)C(=O)N(C)c1c(C)nc2c(OCc3cc(Cl)cc(Cl)c3)cccn12
  -16%, 5%
COc1ccc(C2CC(c3cccs3)=NN2C(=O)CCCC(=O)O)cc1OC (configuration not stated)
  -8%, i
O=C(Nc1ccc(F)cc1)c1ccc(Cn2nc(N3CCN(c4ccccc4)CC3)ccc2=O)o1
  ?, -29%
CCOc1ccc2[nH]c3c(NCCN(CC)CC)ncnc3c2c1
  -21%, ?
C[C@]12c3[nH]c4cc(-c5ccco5)ccc4c3CCN1C(=O)[C@@H](CC(=O)NCCN1CCOCC1)C[C@@H]2C(=O)N1CCCCC1
  ?, -10%
CN(Cc1ccc(F)cc1)C(=O)CCc1nnc(-c2ccccc2)o1
  1%, -4%
Cc1ccc(-c2nnc(SCC(=O)c3ccc(Cl)cc3)n2-c2ccccc2)cc1
  -28%, -5%
Cc1ccc(C(=O)N(CC(C)C)c2nc3ccccc3s2)o1
  -9%, -20%
Cc1c(NC(=O)/C=C/c2ccc(S(=O)(=O)N3CCOCC3)cc2)c(=O)n(-c2ccccc2)n1C
  -14%, -3%
C(=C\c1ccccc1)/CNCC1CCCO1 (configuration not stated)
  -9%, -1%
CC[C@@]1([C@@H]2O[C@@H]([C@H]3O[C@@](O)(CO)[C@H](C)C[C@@H]3C)C[C@@H]2C)CC[C@H]([C@]2(C)CC[C@]3(C[C@H](O)[C@@H](C)[C@@H]([C@@H](C)[C@@H](OC)[C@H](C)C(=O)O)O3)O2)O1 (stereo in doubt)
  ?, i
O=C(Cc1coc2ccc3ccccc3c12)Nc1nnc(C2CC2)s1
  13%, 13µM*
Cc1ccc(N(CCC#N)C(=O)COC(=O)c2nc3nc(C)cc(C)n3n2)cc1
  -5%, -11%
O=C(COc1ccc(F)cc1Cl)Nc1ccc(S(=O)(=O)Nc2nccs2)cc1
  -14%, -21%
CC1Cc2ccccc2N1C(=O)COC(=O)c1cccnc1Cl (configuration not stated)
  -10%, -13%
COc1ccccc1CNC(=O)C1CCCN(S(=O)(=O)c2cccc3nsnc23)C1 (configuration not stated)
  -15%, -21%
Cc1ccsc1C1CC(=O)NC2=C1C(=O)CC(C)(C)C2 (configuration not stated)
  -3%, ·
CCOC(=O)C1=C(C)NC2=C(C(=O)C(C(=O)OCC)C(c3cccc(OC)c3)C2)C1c1ccccn1 (configuration not stated)
  -16%, -15%
COc1ccc(/C=C(\C#N)c2c[nH]c3ccccc23)cc1
  -23%, ?
Cc1ccc(N(C(=O)c2csnn2)C(C(=O)NC2CCCC2)c2cccnc2)cc1 (configuration not stated)
  0%, -2%
COc1ccc(Cl)cc1NC(=O)N1CCN(S(=O)(=O)c2ccc3c(ccn3C)c2)CC1
  -20%, -28%
CN(C)c1ccc(-c2cc(-n3ccnc3)ncn2)cc1
  -6%, -8%
CCCCNC(=O)CCCCCNS(=O)(=O)c1ccc(Br)cc1
  -13%, -18%
COC(=O)c1ccccc1NC(=O)CSc1n[nH]c(CC(C)C)n1
  8%&-6%, -7%
COc1ccc(-c2nc(NC(C)=O)sc2-c2ccc(OC)cc2)cc1
  -13%, -16%
O=C(OCCN1CCCCC1)c1ccc(Cl)cc1
  -13%, ·
CCOc1ccc(C(=O)NC2CCN(CC(=O)NCc3cccs3)CC2)cc1
  -15%, -3%
COCCn1c(SCC(=O)Nc2ccccc2OC)nnc1-c1ccco1
  -10%, -5%
O=C(CSCc1ccccc1)Nc1nccs1
  -11%, -11%[1.46 µM]
CC(C)CN(CCCNC(=O)c1cc(=O)[nH]c2ccc(S(=O)(=O)N3CCCC3)cc12)CC(C)C
  -5%, -4%
CCOc1ccc(-c2nc(CSc3nnc(N)s3)cs2)cc1OC
  ?, ·
CC(C)COc1ccc(CNC(=S)N/N=C/c2ccc([N+](=O)[O-])cc2)cc1
  ?, ?
CN(C(=O)c1cccc(NC(=O)Cc2cccc(NC(=O)C3CCCN(C(=O)C4CCC4)C3)c2)c1)C1CCC1 (configuration not stated)
  -24%, -29%
CCOC(=O)CNC(=O)N1CCCC(CNS(=O)(=O)Cc2ccccc2)C1 (configuration not stated)
  -19%, -18%
COc1ccccc1N(CC(=O)N/N=C(\C)c1ccc(F)cc1)S(=O)(=O)c1ccccc1
  -12%, -4%
Clc1ccc(N=NN2CCOCC2)cc1
  -11%, -5%
COc1cccc(C2C=C(c3ccccc3)Nc3c(C(=O)Nc4ccccc4)cnn32)c1OC (configuration not stated)
  -19%, -21%
COc1ccc(Cl)cc1NC(=S)N(CCN1CCOCC1)C1CCN(C(C)=O)CC1
  24%, -27%
CCOP(=O)(OCC)C(NC(=O)c1ccc(C)cc1)=C(Cl)Cl
  -1%, i
CC(=O)c1cc(-c2ccccc2)n(CC(=O)NCCc2ccc(C)cc2)c1C
  -15%, -19%
O=c1[nH]c(C2CCCN(S(=O)(=O)Cc3ccccc3)C2)nc2c1nnn2Cc1cccc(Cl)c1 (configuration not stated)
  -10%, -13%
O=c1ccc(/C=C/c2ccccc2)nn1Cc1ccc(F)cc1
  -7%, -1%
Cc1cc(NC(=O)CSc2nnc(C3CC3)n2Cc2ccccc2)no1
  -8%, i[1.46 µM]

Next records follow.
SMILES	Vaccinia Venus	Vaccinia mCherry
CNC(=S)NNC(=O)c1sc2cc(C(F)(F)F)cnc2c1-c1ccccn1	-8%	-4%
COC(=O)c1c(OCc2ccccn2)cc(=O)n2c1CCN(Cc1ccc3c(c1)CCCN3C)CC2	-8%	-15%
CNC(=O)c1csc(-c2cccs2)n1	-15%	-2%
CNC(=O)NC(=O)CSc1nc2ccccc2n1CCOC	2%	-9%
CCOC(=O)Nc1nnc(-c2ccccc2OC)s1	-11%	·
COc1ccc(C)cc1S(=O)(=O)N1CCN(C(=O)c2ncoc2-c2cccc(C)c2)CC1	-11%	-12%
COc1ccc(Cl)cc1NS(=O)(=O)c1ccc2c(c1)NC(=O)CC(=O)N2	-2%	6%
CN1CCc2nc(SCc3cccc(Br)c3)c(C#N)cc2C1	-4%	-22%
CSc1ccc(/C=C(/NC(=O)c2ccco2)C(=O)NCc2ccco2)cc1	-18%	i
CCOc1cc(/C=C2/C(=O)ON=C2C)cc(Br)c1O	6%	i
CO/C=C/C#CC1(O)CCN(C)CC1	-7%	-9%
O=C(Nc1ccc(N=Nc2ccccc2)c(NC(=O)C2CCCO2)c1)C1CCCO1 (configuration not stated)	?	-12%
Cc1ccccc1CSc1nnc(Cn2c(=O)sc3ccccc32)n1C	-7%	-12%
C[C@@H]1CC=C[C@@H]2[C@H]1C(=O)N(Cc1ccccc1)[C@H]2c1cccc(Br)c1	-7%	-18%
Cc1ccc(Cl)cc1-n1c(=O)c2sc3ccccc3c2n(CC(=O)NC2CCCC2)c1=O	-6%	14%
Cc1cccc(OCCCCN2CCNCC2)c1	0%	-7%
CN(c1cccc(F)c1)c1cc2c(c3c1ccn3C)C1CCC2O1 (configuration not stated)	1%	19%
COc1ccc(-c2c([C@H]3[C@H]4C=CC[C@@H](C)[C@@H]4C(=O)N3Cc3ccccc3)ccc3ccccc23)cc1OC	?	-26%
CCn1cc(Br)c(C(=O)NC(=S)Nc2ccc(C(=O)OC)cc2)n1	-3%	-11%
CC(C)(C)NC(=O)c1cc2c(ccc3ccccc32)oc1=O	-2%	-9%
COc1ccc(C)cc1S(=O)(=O)N(C)CC(=O)NCc1ccccn1	-3%	9%
O=c1ccc(OCCOc2ccccc2)nn1-c1ccccc1	-11%	-10%
Cc1ccc(C(C(=O)NC(C)(C)C)N(Cc2ccc3c(c2)OCO3)C(=O)c2ccc(CN3CCOCC3)o2)o1 (configuration not stated)	3%	-11%
C/C(CS(=O)(=O)c1ccccc1)=N\O	-8%	i
Cc1ccc(CN2CC(C(=O)Nc3ncc(C)s3)CC2=O)cc1 (configuration not stated)	?	?
COC(=O)c1c(NC(=O)COc2c(C)cccc2C)sc2c1CCCC2	8%	-6%
CCc1nc2ccc(C(=O)Nc3cc(-c4ccccc4)ccc3OC)cn2c1N(CC)CC(=O)N(C)C	?	-14%
CCOc1ccc(C(=O)Nc2cccc(-c3nc4cc(Cl)cc(Cl)c4o3)c2)cc1	0%	-4%
N#C/C(=C\c1ccccc1)c1n[nH]c(Cn2cncn2)n1	-10%	·
COC(=O)c1ccccc1NC(=O)C1COc2ccccc2O1 (configuration not stated)	-4%	-18%

Single entries from the results shown:
Cc1ccccc1CSc1nnc(Cn2c(=O)sc3ccccc32)n1C in Vaccinia Venus: -7%
Cc1ccc(C(C(=O)NC(C)(C)C)N(Cc2ccc3c(c2)OCO3)C(=O)c2ccc(CN3CCOCC3)o2)o1 (configuration not stated) in Vaccinia mCherry: -11%
CCOc1ccc(C(=O)NC2CCN(CC(=O)NCc3cccs3)CC2)cc1 in Vaccinia Venus: -15%

More compounds follow:
SMILES	Vaccinia Venus	Vaccinia mCherry
CCOC(=O)c1cccc(NC(=O)CCNS(=O)(=O)c2cc(Br)cnc2N)c1	-16%	-23%
COc1ccc(C(=O)N2N=C(c3ccccc3)CC2(O)C(F)(F)F)cc1 (configuration not stated)	0%	-7%
COc1ccc(S(=O)(=O)N(C)CC(=O)NCCN2CCOCC2)cc1	6%	-6%
COc1ccc(OC)c(NC(=O)CSC2=Nc3ccccc3C3=NC(CC(=O)NCc4ccc(F)cc4)C(=O)N23)c1 (configuration not stated)	-17%	-24%
O=C(Nc1ccccn1)C1CCN(C(=O)c2ccc(F)cc2)CC1	-10%	-18%
CCN(C[C@H]1N[C@@](CC)(C(=O)OC)[C@H]2C(=O)N(Cc3ccccc3)C(=O)[C@@H]12)S(=O)(=O)c1ccc(F)cc1	-16%	-8%
Cc1nnc(N2CCC(C(=O)NCCc3ccccc3)CC2)c2nn(-c3ccc(Cl)cc3)c(C)c12	?	?
CCCCCCn1c(O)c(C=NC2CCN(Cc3ccccc3)CC2)c(=O)[nH]c1=O	?	·
COCC(C)Nc1ncnc2c1cnn2-c1ccc(Cl)cc1 (configuration not stated)	-19%	·
COCCNC(=O)C1CCN(S(=O)(=O)c2c(C)noc2/C=C/c2cccs2)CC1	21%[7.34 µM]	9%[7.34 µM]
c1ccc(C2=Nc3cccnc3C(c3ccccc3)=NN2)cc1	-9%	i
COc1cccc(CN(C)C(=O)c2cnn(-c3ncc4c(n3)-c3ccccc3CCC4)c2C)c1	-28%	?
COc1ccc(N2C(=O)CS(=O)(=O)C23C(=O)N(Cc2ccccc2F)c2ccccc23)cc1Cl (configuration not stated)	-13%	-3%
COc1ccc(CCNC(=O)c2cc3sccc3n2C)cc1OC	-5%	-12%
C=CC[C@@H](CC(=O)N(CCO)Cc1ccccc1)C(=O)N[C@H](C)COC(=O)[C@@H](CC=C)Cc1ccc(F)cc1	-16%	-33%
COC(=O)Nc1cc(C)n(-c2ccccc2)n1	-8%	i
CSC1=NCCN1C(=O)c1c(F)cccc1Cl	-12%	i
CCN(CC)S(=O)(=O)c1ccc(-c2nnc(SCC(=O)Nc3ccc4c(c3)OCO4)o2)cc1	-21%	-8%

Entries of single compounds from above.
Profile of `COc1ccc(N2C(=O)CS(=O)(=O)C23C(=O)N(Cc2ccccc2F)c2ccccc23)cc1Cl` (configuration not stated) = Vaccinia Venus = -13%; Vaccinia mCherry = -3%
Profile of `c1ccc(C2=Nc3cccnc3C(c3ccccc3)=NN2)cc1` = Vaccinia Venus = -9%; Vaccinia mCherry = i
